Assay outcomes (PubChem BioAssay)
Ecoli rRNA inh = inhibits bacterial ribosomal RNA function over humanized ribosomes; AID 720706; E. coli WT GFP vs humanized-ribosome RFP mutants, fluorescence, 24 h; hits give low values; DMSO median 0, no signal -100; hit rate 1.6% among 350,000; GFP signal change (wild-type ribosome), % (test concentration not listed);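 active = significant combined selectivity score with lowered wild-type GFP, culture density cut under 30%, mutant RFP and density less affected; inactive = any of these conditions unmet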; also: one replicate is shown; some compounds called inactive have numbers as strong as hits
Ecoli rRNA inh OD600 = second read-out of Ecoli rRNA inh, no call of its own (marks repeat the call); OD600 change, %; measured here: OD600 growth;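 optical density of the mix in the first replicate; 0 = DMSO median and -100 = no signal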
Ecoli rRNA inh RFP = also measured in Ecoli rRNA inh; calls as there; RFP signal change, %; measured here: RFP humanized mutant strains;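 first replicate; 0 = DMSO median and -100 = no signal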
* = called active by the depositor; & = joins results of further samples. A portion of the library; rates above refer to the full screens.

SMILES	Ecoli rRNA inh	Ecoli rRNA inh OD600	Ecoli rRNA inh RFP
CC(C)(C)[S@](=O)N1Cc2cc(C(=O)N[C@@H]3CCN(Cc4ccccc4)C3)nc(-c3cccc(-c4ccncc4)c3)c2[C@@H]1CCO	1	9	-4.4
CN(C)C(=O)c1ccc(-c2ccc(C3[C@@H]4CN(C(=O)C5CCOCC5)C[C@H]3N4)cc2)cc1 (stereo partly drawn)	11&6	12&20	0.4&2.4
C[C@@H]1CN([C@@H](C)CO)C(=O)Cc2cc(NS(=O)(=O)c3cccs3)ccc2O[C@@H]1CN(C)S(=O)(=O)c1cccs1	-3	-6	1.9
CCC(=O)NC[C@@H]1[C@@H](c2ccc(C3=CCCCC3)cc2)[C@@H](CO)N1CC1CC1	2	6	1.0
CCCNC(=O)N1C[C@H]2[C@@H](c3ccccc31)[C@H](CO)N2Cc1cc(F)ccc1F	1	3	-0.6
COc1ccc2c3c(n(C)c2c1)[C@@H](CO)N(C)CC31CCN(S(=O)(=O)c2cccc(F)c2)CC1	-12	-28	0.1
COc1ccc2c3c([nH]c2c1)[C@@H](CO)N(C(=O)CC1CC1)CC31CCN(C(=O)CC2CC2)CC1	-3	-2	-0.5
COc1ccc(CN(C)C[C@@H]2OCCCC[C@@H](C)Oc3ccc(NC(=O)c4ccccc4)cc3C(=O)N([C@@H](C)CO)C[C@@H]2C)cc1	1	5	-0.7
Cc1ccc(S(=O)(=O)Nc2ccc3c(c2)C(=O)N([C@@H](C)CO)C[C@@H](C)[C@@H](CN(C)S(=O)(=O)c2ccc(Cl)cc2)OCCCC[C@H](C)O3)cc1	4	2	0.0
COCC(=O)N[C@H]1C=C[C@@H](CC(=O)NCc2ccc(Cl)cc2)O[C@@H]1CO	2	12	-1.1
C/C=C/c1ccc([C@H]2[C@@H](CNC(=O)CC3CC3)N(C(C)=O)[C@H]2CO)cc1	-1	7	-3.7
CCCNC(=O)Nc1ccc2c(c1)C(=O)N(C)C[C@H](OC)[C@@H](C)CN(Cc1ccncc1)[C@@H](C)CO2	1	6	2.3
O=C(C[C@H]1C[C@H]2c3cc(NS(=O)(=O)c4ccc(F)cc4)ccc3O[C@H]2[C@@H](CO)O1)NCc1ccc(-c2ccccc2)cc1	-4	-4	3.1
O=C(c1cccnc1)N1CC(=O)N2[C@H](C1)[C@@H](c1ccc(-c3ccc(F)cc3)cc1)[C@@H]2CO	-4	-7	1.7
COc1ccccc1NC(=O)N1CC(=O)N2[C@H](CO)[C@H](c3ccc(-c4cccc(C)c4)cc3)[C@@H]2C1	-9	-13	3.6
COc1ccc2c3c([nH]c2c1)[C@H](CO)N(C(=O)c1cccnc1)CC31CN(C(=O)Nc2cccc(F)c2)C1	2	-5	-1.7
C[C@@H]1CN([C@@H](C)CO)C(=O)c2cc(NS(=O)(=O)c3ccc(Cl)cc3)ccc2O[C@H]1CN(C)Cc1ccc(C(F)(F)F)cc1	1	-6	0.2
CC=Cc1ccc2n(c1=O)C[C@@H]1[C@@H](CO)[C@H](C(=O)NC3CCC3)N(C(=O)C3CC3)[C@H]21 (mixture of isomers)	3	1	1.7
O=C(NCC1CC1)[C@H]1[C@H](CO)[C@H]2Cn3c(ccc(C4=CCCCC4)c3=O)[C@H]2N1Cc1ccccc1F	-40	-71	26
CC(C)NC(=O)Nc1cccc2c1O[C@H](CN(C)S(=O)(=O)c1cccs1)[C@H](C)CN([C@@H](C)CO)C2=O	1	4	-0.6
C[C@@H]1CCCCO[C@H](CN(C)Cc2ccncc2)[C@H](C)CN([C@@H](C)CO)C(=O)c2cc(N(C)C)ccc2O1	0	0	-2.5
N#Cc1cccc(-c2ccc(C3[C@H]4CNC[C@@H]3N4S(=O)(=O)Cc3ccccc3)cc2)c1 (stereo partly drawn)	-4	3	-0.2
CC(=O)Nc1ccc2c(c1)CC(=O)N(C)C[C@H](C)[C@@H](CN(C)C(C)=O)O2	0	0	-2.7
CC(=O)N1[C@@H]2c3ccc(C4=CCCC4)c(=O)n3C[C@H]1[C@H](CO)[C@H]2C(=O)NC1CCCCC1	1	1	-3.0
C[C@@H]1CN([C@@H](C)CO)C(=O)c2cccc(NC(=O)Nc3ccc(F)cc3)c2O[C@@H]1CN(C)C(=O)NC1CCCCC1	-3	6	0.4
COc1ccc(S(=O)(=O)N(C)C[C@H]2Oc3c(NC(=O)NC4CCCCC4)cccc3C(=O)N([C@@H](C)CO)C[C@@H]2C)cc1	-6	-17	4.0
COc1cccc(NC(=O)N2CC3(C2)[C@H](c2ccccc2)[C@H](CO)N3C(=O)C2CCCC2)c1	-3	-27	5.7
CCCN1[C@H](C(=O)NCCCN(C)C)[C@@H](CO)[C@@H]2Cn3c(ccc(C4=CCCC4)c3=O)[C@@H]21	2	4	-1.4
COCC(=O)Nc1ccc2c(c1)OC[C@@H](C)N(CCC(F)(F)F)C[C@@H](C)[C@H](OC)CN(C)C2=O	2	6	-1.5
COc1ccc([C@@H]2C/C=C\C[C@@H](c3ccc4c(c3)OCO4)NC(=O)[C@@H](c3ccccc3)CC(=O)N2)c(OC)c1	0	5	-0.5
CC(C)NC(=O)N(C)C[C@H]1Oc2ccc(NS(C)(=O)=O)cc2C(=O)N(C)C[C@@H]1C	2	3	-2.3
O=C(CCN1CCCCC1)N[C@H]1CC[C@@H](CCNS(=O)(=O)c2ccccc2)O[C@@H]1CO	2	-3	-0.4
O=C(C1CCOCC1)N1CC(=O)N2[C@H](C1)[C@H](c1ccc(Br)cc1)[C@@H]2CO	9	7	3.8
C[C@@H]1CCCCO[C@@H](CN(C)Cc2ccncc2)[C@@H](C)CN([C@@H](C)CO)C(=O)c2cc(NC(=O)C3CCCCC3)ccc2O1	1	3	0.4
C[C@@H]1CN([C@H](C)CO)S(=O)(=O)c2ccc(-c3ccc(F)cc3)cc2O[C@@H]1CN(C)Cc1cccc(F)c1	2	19	-1.1
Fc1cccc(CN2[C@@H]3CNC[C@H]2C3c2ccc(/C=C/c3ccccc3)cc2)c1 (stereo partly drawn)	1	-43	22

Part of the list above, field by field.
> COc1ccc(S(=O)(=O)N(C)C[C@H]2Oc3c(NC(=O)NC4CCCCC4)cccc3C(=O)N([C@@H](C)CO)C[C@@H]2C)cc1
  Ecoli rRNA inh: -6
  Ecoli rRNA inh OD600: -17
  Ecoli rRNA inh RFP: 4.0

> COc1cccc(NC(=O)N2CC3(C2)[C@H](c2ccccc2)[C@H](CO)N3C(=O)C2CCCC2)c1
  Ecoli rRNA inh: -3
  Ecoli rRNA inh OD600: -27
  Ecoli rRNA inh RFP: 5.7

> CCCN1[C@H](C(=O)NCCCN(C)C)[C@@H](CO)[C@@H]2Cn3c(ccc(C4=CCCC4)c3=O)[C@@H]21
  Ecoli rRNA inh: 2
  Ecoli rRNA inh OD600: 4
  Ecoli rRNA inh RFP: -1.4

> COCC(=O)Nc1ccc2c(c1)OC[C@@H](C)N(CCC(F)(F)F)C[C@@H](C)[C@H](OC)CN(C)C2=O
  Ecoli rRNA inh: 2
  Ecoli rRNA inh OD600: 6
  Ecoli rRNA inh RFP: -1.5

By substructure: the compounds so far with a thiophene ring, fused or not.
SMILES	Ecoli rRNA inh	Ecoli rRNA inh OD600	Ecoli rRNA inh RFP
C[C@@H]1CN([C@@H](C)CO)C(=O)Cc2cc(NS(=O)(=O)c3cccs3)ccc2O[C@@H]1CN(C)S(=O)(=O)c1cccs1	-3	-6	1.9
CC(C)NC(=O)Nc1cccc2c1O[C@H](CN(C)S(=O)(=O)c1cccs1)[C@H](C)CN([C@@H](C)CO)C2=O	1	4	-0.6

(next part)
SMILES	Ecoli rRNA inh	Ecoli rRNA inh OD600	Ecoli rRNA inh RFP
COc1ccccc1-c1ccc([C@@H]2[C@@H]3CN(S(=O)(=O)c4ccc(-c5ccccc5)cc4)C[C@H]2N3)cc1	-56	-75	-14
COc1ccc(S(=O)(=O)N(C)C[C@@H]2Oc3ccc(NC(=O)NC(C)C)cc3C(=O)N([C@@H](C)CO)C[C@@H]2C)cc1	-2	-5	1.2
O=C(NC1CCC1)[C@H]1N[C@H]2c3ccc(-c4cccc(F)c4)c(=O)n3C[C@H]2[C@@H]1CO	-3	-5	-1.3
CC(C)C#Cc1ccc([C@H]2[C@H](CO)N3C(=O)CN(C(=O)Cc4cccnc4)C[C@@H]23)cc1	4	7	-1.9
CO[C@@H]1CN(C)C(=O)c2cc(NC(=O)NC3CCCCC3)ccc2OC[C@H](C)N(C)C[C@@H]1C	1	-4	1.5
COc1ccc2c3c(n(C)c2c1)[C@@H](CO)N(C(=O)CC1CC1)CC31CCN(C(=O)C2CCC2)CC1	-4	-2	3.5
C[C@H]1CCCCO[C@H](CN(C)C)[C@@H](C)CN([C@@H](C)CO)C(=O)c2cc(NS(C)(=O)=O)ccc2O1	2	3	-0.9
C[C@H](CO)N1C[C@H](C)[C@@H](CN(C)Cc2ccccc2)OCCCC[C@H](C)Oc2ccc(NS(=O)(=O)c3ccc(F)cc3)cc2C1=O	0	-2	-0.8
C[C@H]1CN([C@@H](C)CO)C(=O)Cc2cc(NC(=O)c3ccncc3)ccc2O[C@@H]1CN(C)S(C)(=O)=O	3	-6	2.3
CCCN1C[C@H](C)[C@H](OC)CN(C)C(=O)c2ccc(NC(=O)CC)cc2OC[C@@H]1C	1	-1	-2.2
Cc1ccc(S(=O)(=O)N(C)C[C@@H]2OCCCC[C@H](C)Oc3ccc(NC(=O)Cc4ccccc4)cc3C(=O)N([C@H](C)CO)C[C@@H]2C)cc1	3	0	-0.4
C/C=C/c1ccc2c(c1)O[C@H](CN(C)CC1CC1)[C@H](C)CN([C@@H](C)CO)S2(=O)=O	7	4	-1.6
CC(=O)N(C)C[C@@H]1Oc2cc(C3=CCCCC3)ccc2S(=O)(=O)N([C@@H](C)CO)C[C@H]1C	0	-12	0.4
O=C(C[C@@H]1CC[C@H](NC(=O)C2CCOCC2)[C@H](CO)O1)NCC1CC1	2	9	-1.8
CCC(=O)N1CC[C@H]2[C@H](CO)Nc3ccc(C#Cc4ccccc4F)cc3[C@H]21	1	-1	-1.8
Cc1ccc(S(=O)(=O)Nc2ccc3c(c2)C(=O)N([C@@H](C)CO)C[C@@H](C)[C@H](CN(C)C(=O)C2CCCCC2)OCCCC[C@H](C)O3)cc1	0	-3	0.1
CCC(=O)N1CC(=O)N2[C@@H](CO)[C@@H](c3ccc(-c4ccc(C#N)cc4)cc3)[C@@H]2C1	1	3	-1.5
CCC(=O)N1CC(=O)N2[C@H](C1)[C@@H](c1ccc(C#Cc3cccc(F)c3)cc1)[C@@H]2CO	-19	-61	15
Cc1noc(C)c1NC(=O)N(C)C[C@@H]1OCCCC[C@H](C)Oc2ccc(NC(=O)NC3CCCCC3)cc2C(=O)N([C@H](C)CO)C[C@@H]1C	1	0	-0.4
CC(C)[C@H]1COCc2cn(nn2)CCCCC(=O)N1	5	4	-0.6
O=C(Nc1cccc(F)c1)N1CC(=O)N2[C@H](CO)[C@@H](c3ccc(-c4cccc(F)c4)cc3)[C@@H]2C1	-26	-63	23
O=C(c1ccccc1F)N1CC[C@H]2[C@H](CO)Nc3ccc(C#Cc4ccc(F)cc4)cc3[C@H]21	-15	-38	24
CC(C)CC#Cc1ccc2c(c1)O[C@@H](CN(C)Cc1ccccc1)[C@@H](C)CN([C@@H](C)CO)S2(=O)=O	-8	-9	7.0
C[C@@H]1CN([C@H](C)CO)C(=O)c2cc(C3=CCCCC3)cnc2O[C@H]1CN(C)S(C)(=O)=O	-1	9	-2.0

A different layout for part of the listing above.
canonical_smiles | Ecoli rRNA inh | Ecoli rRNA inh OD600 | Ecoli rRNA inh RFP
C[C@@H]1CN([C@H](C)CO)C(=O)c2cc(C3=CCCCC3)cnc2O[C@H]1CN(C)S(C)(=O)=O | -1 | 9 | -2.0
Cc1noc(C)c1NC(=O)N(C)C[C@@H]1OCCCC[C@H](C)Oc2ccc(NC(=O)NC3CCCCC3)cc2C(=O)N([C@H](C)CO)C[C@@H]1C | 1 | 0 | -0.4
CCC(=O)N1CC[C@H]2[C@H](CO)Nc3ccc(C#Cc4ccccc4F)cc3[C@H]21 | 1 | -1 | -1.8

Further entries:
SMILES	Ecoli rRNA inh	Ecoli rRNA inh OD600	Ecoli rRNA inh RFP
Cc1ccc(S(=O)(=O)Nc2ccc3c(c2)C(=O)N([C@@H](C)CO)C[C@@H](C)[C@@H](CN(C)Cc2ccc(Oc4ccccc4)cc2)O3)cc1	4	-16	8.5
COc1ccc(S(=O)(=O)N(C)C[C@@H]2Oc3c(NC(=O)c4nc5ccccc5s4)cccc3C(=O)N([C@@H](C)CO)C[C@H]2C)cc1	3	-4	-2.0
COCC#Cc1ccc([C@H]2[C@@H](CO)N3C(=O)CN(C(=O)Nc4ccccc4F)C[C@@H]23)cc1	1	-9	-2.0
C[C@H](CO)N1C[C@H](C)[C@@H](CN(C)Cc2ccc3c(c2)OCO3)OCCCC[C@H](C)Oc2ccc(NS(=O)(=O)c3ccccc3)cc2C1=O	1	-6	0.1
CO[C@@H]1CN(C)C(=O)c2cc(NC(=O)NC(C)C)ccc2OC[C@@H](C)N(C(=O)CN(C)C)C[C@H]1C	2	3	-0.5
CCCNC(=O)N1[C@H](CNC(=O)c2cccc(F)c2)[C@@H](c2ccccc2)[C@@H]1CO	-12	-12	-3.8
O=C(C[C@@H]1C=C[C@H](NC(=O)Nc2ccccc2F)[C@H](CO)O1)NCc1ccccc1	-1	-5	-2.3
O=C(O)C[C@@H]1C[C@@H]2c3cc(NC(=O)Cc4ccncc4)ccc3O[C@@H]2[C@H](CO)O1	4	4	0.1
CN(C)C(=O)[C@@H]1[C@@H](CO)[C@@H]2Cn3c(cccc3=O)[C@H]1N2CC1CCCC1	3	-2	-3.3
CO[C@H]1CN(C)C(=O)c2cc(NC(=O)c3ccccc3)ccc2OC[C@@H](C)N(CC2CC2)C[C@H]1C	0	-1	-2.0
COc1cccc(-c2ccc3c(c2)[C@H]2[C@H](CCN2S(=O)(=O)c2ccccc2C)[C@@H](CO)N3C)c1	-2	16	-2.6
